# miR-21 FLuc – qHTS Assay for Modulators of miRNAs and/orActivators of miR-21 | HeLa miR-21 FLuc reporter, luciferase, 48 h | Potency, µM (top dose mostly 38.3 µM), for the others: at the top dose reporter change, positive = more light | 340,000 tested, under 10 active; active = well fitted rising curve with a large enough effect; inconclusive = small, poorly fitted or top-dose-only effect; inactive = no such curve, though single readings can be large or run the other way;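 note: % of control where 0% means no effect; miR-21 action dims this reporter so a rising signal means less miR-21 action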
#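 Using DMEM plus 10% FBS, HeLa miR-21-FLuc cells are incubated with test compounds (final up to about 40uM) for 48 hours; firefly luciferase signal is then imaged following reagent-mediated lysis.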
# Rango dissoc inh – qHTS Assay for Inhibitors of RanGTP induced Rango (Ran-regulated importin-beta cargo) - Importin beta complex dissociation. Biochemical FRET Rango-importin beta, RanGTP-induced dissociation. Potency, µM (titrated, usually from 46.1 µM), for the others: at the highest dose activity change, negative = inhibition. Snurportin-1 (Homo sapiens) + GTP-binding nuclear protein Ran (Homo sapiens) + Importin …. hit rate 0.071% among 340,000. AID 540253, 2011; active means falling FRET ratio curve, often poorly fitted, with flat reads before Ran was added; inconclusive means other falling curves, or compound fluorescence or quenching; inactive means flat or rising ratio curve;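 note: potency is the fitted concentration of half-maximal effect; % of control where 0% means no effect; nearly all actives have a fitted effect of over 45% in size; -100% = wells without RanGTP and RCC1; the record marks most hits as doubtful in a second field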
#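 Quantitative HTS using a FRET biosensor: 0.1 uM Rango, 0.25 uM importin beta, 0.6 uM Ran, 2 mM GTP, 0.2 uM RCC1 final, PBS with DTT, Tween-20 and BSA. Post-read taken 45 min after Ran addition.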
# Rango-impB inh – qHTS Assay for Inhibitors of Rango (Ran-regulated importin-beta cargo) - Importin beta complex formation. Importin subunit beta-1 (Homo sapiens), Q14974. Rango CFP/YFP FRET sensor + importin beta, 45 min. Potency, µM (top dose mostly 92.2 µM), inactives show at the highest dose inhibition of complex formation. hit rate 0.031% among 340,000; active = rising FRET ratio curve, often small or poorly fitted; inconclusive = mostly compound fluorescence or quenching in the first reads; inactive = flat curves in all reads;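 note: potency is the fitted concentration of half-maximal effect; 0% = DMSO wells and 100% = buffer wells lacking importin beta; nearly all actives have a fitted effect of over 15% in size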
# Target sequence (Q14974 whole entry, looked up): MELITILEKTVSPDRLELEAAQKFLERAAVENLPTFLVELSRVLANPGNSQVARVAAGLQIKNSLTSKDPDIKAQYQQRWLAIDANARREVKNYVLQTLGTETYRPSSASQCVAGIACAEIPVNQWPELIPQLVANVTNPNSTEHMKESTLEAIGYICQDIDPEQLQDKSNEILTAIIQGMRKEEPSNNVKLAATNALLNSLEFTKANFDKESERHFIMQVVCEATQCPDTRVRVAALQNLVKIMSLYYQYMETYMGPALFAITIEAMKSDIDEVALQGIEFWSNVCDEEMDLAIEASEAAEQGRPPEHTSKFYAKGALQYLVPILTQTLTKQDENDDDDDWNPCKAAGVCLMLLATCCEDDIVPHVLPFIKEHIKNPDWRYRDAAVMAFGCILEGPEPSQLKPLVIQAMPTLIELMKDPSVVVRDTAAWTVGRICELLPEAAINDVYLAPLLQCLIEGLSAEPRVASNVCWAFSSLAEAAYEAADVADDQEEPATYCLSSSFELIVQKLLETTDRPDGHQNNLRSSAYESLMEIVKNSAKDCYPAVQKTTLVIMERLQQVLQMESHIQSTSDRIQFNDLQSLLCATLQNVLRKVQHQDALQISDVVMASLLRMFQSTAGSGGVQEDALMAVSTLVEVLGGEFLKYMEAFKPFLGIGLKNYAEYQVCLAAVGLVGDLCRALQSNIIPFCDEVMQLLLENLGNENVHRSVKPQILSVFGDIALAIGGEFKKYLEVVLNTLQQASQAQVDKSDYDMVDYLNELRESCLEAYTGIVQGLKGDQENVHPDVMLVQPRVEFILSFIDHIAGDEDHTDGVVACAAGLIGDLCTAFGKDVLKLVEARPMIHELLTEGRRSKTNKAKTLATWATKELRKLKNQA
#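 FRET biosensor Rango (snurportin 1 IBB between N-terminal EYFP and C-terminal Cerulean), 50 nM in PBS/1 mM DTT/0.02% Tween-20/0.1% BSA, preincubated 5 min RT with compound; 0.125 microM importin beta added, 45 min RT, CFP/YFP FRET ratio read.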
# GLA inh pH 4.5 – qHTS Assay for Inhibitors of Human alpha-Galactosidase at pH 4.5; 230,000 tested, under 10 active; activity change, negative = inhibition, % at 105 µM; AID 1467, 2008; Alpha-galactosidase A (Homo sapiens), P06280; purified enzyme, 4-MU-alpha-Gal fluorescence, pH 4.5; inconclusive = small, poorly fitted or top-dose-only inhibition, or a rising curve; inactive = flat fitted curve, though single readings scatter; no compound was filed as active;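 note: 0% = full activity with enzyme and -100% = basal without enzyme; dose as in the result columns while the protocol names 77 µM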
# The depositor's hits bear a star; ? = inconclusive; · = not tested or not shown; & = joins results of further samples; [ ] = dose if it differs, or a comment. The list is partial; count on the stated rates, not on these rows.
miR-21 FLuc | Rango dissoc inh | Rango-impB inh | GLA inh pH 4.5 | Molecule
29% | -19% | 1.3% | -6 | CC1CCN(S(=O)(=O)c2ccc3c(c2)oc(=O)n3CC(=O)NCc2ccc3c(c2)OCO3)CC1
-15% | -8% | -4.4% | 0 | COc1ccc(-c2nc(C)c(C(C)=O)n2O)cc1
· | 2% | -0.7% | · | CCc1ccccc1NC(=O)CNC(=O)c1cn(Cc2ccccc2)nc1-c1cccnc1
· | -3% | -0.3% | · | Cc1ccc(OCCC(=O)Nc2ccc(S(=O)(=O)N3CCCC3)cc2)cc1
0% | -4% | 1.9% | -6 | CCOC(=O)N1CCN(C(=O)c2ccc3c(=O)n4c(nc3c2)CCCCC4)CC1
-2% | -12% | 0.3% | -10 | Cc1c(NC2=NC3(CCCCC3)Cc3ccccc32)c(=O)n(-c2ccccc2)n1C
-7% | 19% | -2.2% | -7 | Clc1ccc(CSc2cc3c(nn2)-c2ccccc2CC3)cc1Cl
-49% | · | · | -4 | CCN(CC)CCN1C(=O)C(=O)/C(=C(/O)c2cnn(-c3ccccc3)c2C)C1c1cccs1 (stereo unspecified)
-4% | 1% | -0.7% | -1 | Cc1ccc(-n2c(SCC(=O)N(C)C3CCS(=O)(=O)C3)nc3ccccc3c2=O)cc1 (stereo unspecified)
-3% | -3% | 0.9% | 3 | CCN(C(=S)NC(=O)c1ccccc1Br)C1CCCCC1
-36% | -6% | -6.7% | -10 | COC(=O)c1c(NC(C)=O)sc(C(=O)Nc2ccccc2)c1C
1% | -12% | 12% | · | Cc1ccc(NC(=O)CCC(=O)OC(C)C(=O)c2ccccc2)cc1 (stereo unspecified)
-4% | ? | -2.5% | 18 | CCOC(=O)C(C)Sc1nc(-c2ccco2)cc(C(F)(F)F)c1C#N (stereo unspecified)
-1% | -4% | 1.0% | -10 | COc1ccc(NC(=O)CN(c2ccccc2)S(=O)(=O)N(C)C)cc1OC
1% | 6% | -3.4% | 3 | C=CCn1c(C(CC(C)C)CC(C)O)n[nH]c1=S (stereo unspecified)
-4% | -13% | 0.2% | · | Cc1ccc(-n2nc3c(c2NC(=O)CC(C)C)CS(=O)(=O)C3)cc1
-8% | 7% | 0.4% | -2[21.1 µM] | COc1cccc(N/C(SC)=C(/C#N)C(=O)NCc2cccs2)c1
· | -4% | -0.6% | · | CCCc1cc(=O)[nH]c(SCC(=O)Nc2cccc(S(=O)(=O)N3CCOCC3)c2)n1
-3% | 7% | -0.5% | · | O=C(NCc1ccc(Cl)cc1)C1CCCN1C(=O)Nc1ccccc1 (stereo unspecified)
-7% | 10% | -5.6% | 3 | Cc1cc(C)cc(C(=O)OCC(=O)NCC(F)(F)F)c1
0% | -2% | 8.0% | · | COc1cccc(CNCC2CCCO2)c1 (stereo unspecified)
-10% | 7% | -1.2% | -5 | Cc1ccc(C(=O)CSc2nnc(-c3cccs3)n2C)o1
-12% | 14% | 3.9% | -2 | CCOC(=O)N/N=C1\CC(C)CC(C)(C)C1 (stereo unspecified)
· | 0% | -2.4% | · | O=C(COc1ccc([N+](=O)[O-])cc1)Nc1ccc2[nH]c(=O)[nH]c2c1
-3% | 0% | 4.5% | 0 | CCOC(=O)N1CCN(C(=O)C2CCN(S(=O)(=O)c3ccccc3)CC2)CC1

# The listing continues:
miR-21 FLuc | Rango dissoc inh | Rango-impB inh | GLA inh pH 4.5 | Molecule
4% | -13% | 0.8% | 3&2 | COC(=O)[C@@H]1C[C@@]2(O)[C@@H](O)[C@@H](O)[C@@H](O)C[C@H]2N1Cc1ccc(C)s1
-36% | -22% | 4.7% | 11 | O=C(NC1CCCCCCC1)c1cc(F)c(F)cc1Cl
1% | -12% | 1.6% | 0 | Cc1c(NC(=O)Nc2ccc(Cl)cc2Cl)c(=O)n(-c2ccccc2)n1C
-1% | 7% | 3.5% | -4 | CCOc1ccc(N(CC(=O)Nc2c(C)n(C)n(-c3ccccc3)c2=O)S(=O)(=O)c2ccccc2)cc1
4% | 1% | -0.3% | -17 | COc1ccc2c(c1)c(C(=O)N/N=C/c1cccc(Br)c1)c(C)n2C
7% | 12% | -2.9% | -9 | CC(O)CNc1nc2c(c(=O)n(C)c(=O)n2C)n1Cc1cccc(C(F)(F)F)c1 (stereo unspecified)
· | 0% | -4.4% | · | C#CCOCCOCCOCCNc1nc(N2CCN(C(=O)[C@H](CO)n3cc([C@@H](N)C(C)C)nn3)CC2)nc(N2CCN(C(=O)[C@H](CCC(=O)O)n3cc([C@@H](N)[C@H](C)CC)nn3)CC2)n1
8% | -8% | 6.5% | 2 | COc1ccc(NC(=O)COn2nnc3ccc(Cl)cc32)cc1OC
· | -6% | 8.0% | · | CCCn1c(CCNc2nc(-c3cccc(Br)c3)cs2)nc2ccccc21
5% | 9% | -1.9% | 9 | CCC(C)C(=O)Nc1cc(C(=O)OC)cc(C(=O)OC)c1 (stereo unspecified)
0% | 7% | -0.5% | -12 | CCn1c(-c2csc3c2CCC(C)C3)n[nH]c1=S (stereo unspecified)
-7% | -3% | 5.6% | · | CCc1ccc(NC(=O)CN2C(=O)CC(C)S(=O)(=O)c3ccccc32)cc1 (stereo unspecified)
7% | 2% | 1.5% | · | CC(C)CNC(=O)COC(=O)c1ccc2c(c1)C(=O)N(Cc1ccco1)C2=O
-8% | -14% | -1.9% | 2 | Cc1cc(-c2ccccc2)n2ncc(C#N)c2n1
-7% | 23% | 0.9% | 6 | CC1CCCC(NC(=O)COC(=O)[C@@H]2CC(O)CN2S(=O)(=O)c2ccc3c(c2)OCCO3)C1C (stereo partly specified)
-16% | -9% | 2.7% | · | COc1ccc(NC(=O)CS(=O)(=O)c2ccccc2)cc1
-6% | -9% | 2.0% | 3 | O=C(CSc1nc2ccccc2n1-c1ccccc1)NCC1CCCO1 (stereo unspecified)
0% | -7% | -3.0% | · | Cc1cc(NC(=O)CCC(=O)N(C(C(=O)NC(C)(C)C)c2ccccc2Cl)C(C)(C)C)no1 (stereo unspecified)
-6% | -8% | 1.4% | · | CC(C)[C@H](NC(=O)N1c2ccccc2NC(=O)[C@@H]1C(C)C)C(=O)N[C@@H](C(=O)O)c1ccccc1
-6% | 9% | -1.6% | 2 | Cc1nnc(-c2ccccc2)nc1N1CCOCC1
-12% | 3% | -1.8% | -2 | Nc1nnc(-c2ccccc2)c(-c2ccccc2)n1
0% | -7% | 0.2% | 7 | CCOC(=O)c1c(NC(=O)c2nc3n(n2)C(C(F)F)CC(C)N3)sc2c1CCCC2 (stereo unspecified)
-2% | -1% | -0.1% | -2 | COc1ccccc1N(C)S(=O)(=O)c1ccc(C(=O)O)cc1
0% | ? | 0.6% | · | CC/C(=N\NC(=O)Cc1ccc(Br)cc1)c1cccs1
-6% | -16% | -0.8% | -4 | CC1CCN(C(=S)Nc2ccc3nc4n(c(=O)c3c2)CCCCC4)CC1

# Additional results.
miR-21 FLuc | Rango dissoc inh | Rango-impB inh | GLA inh pH 4.5 | Molecule
· | 0% | 7.0% | · | C#CCOCCOCCOCCNc1nc(N2CCN(C(=O)[C@H](CCCN=C(N)N)n3cc(C(N)[C@H](C)CC)nn3)CC2)nc(N2CCN(C(=O)[C@H](CC(N)=O)n3cc(C(N)[C@@H](C)CC)nn3)CC2)n1 (stereo partly specified)
-7% | 1% | -2.2% | 3 | Fc1ccc(-c2nnc(SCc3ncc(-c4ccccc4)o3)n2CC2CCCO2)cc1 (stereo unspecified)
· | ? | ? | · | CC1CCN(c2ccc3c(c2)S(=O)(=O)c2cccc(C(=O)NCc4ccc(F)cc4)c2C3=O)CC1
-10% | 3% | 0.9% | -2 | Cc1ccc(C(=O)OCC(=O)Nc2sc3c(c2C#N)CCCC3)cc1NC(=O)c1ccco1
-9% | -1% | -1.7% | 3 | CC(C)(C)C1CCC(=NNC(=O)c2cc(-c3ccccc3)n[nH]2)CC1 (stereo unspecified)
-5% | 10% | 5.5% | · | O=C(NCc1ccccc1Cl)C1CCN(S(=O)(=O)c2ccc(N3CCCC3=O)cc2)CC1
19% | -11% | 0.6% | -8 | Cc1cc(C)n(-c2nc(NC(C)C)nc(NC(C)C)n2)n1
-1% | -4% | -1.6% | 3 | CCn1c(SCC(=O)N2CCOCC2)nnc1-c1cccs1
25% | 8% | ? | -3 | CC(=O)c1cccc(NC(=O)c2ccc(N(Cc3ccccc3C)S(C)(=O)=O)cc2)c1
-1% | 9% | 5.5% | -3 | COc1ccc([N+](=O)[O-])cc1NC(=O)c1ccc(CN(c2ccc(C)c(C)c2)S(C)(=O)=O)cc1
-35% | -5% | 0.0% | -1 | Oc1ccccc1-c1csc(-c2ccccc2)n1
· | -6% | 0.1% | · | CCCCn1c(N)c(N(CCOC)C(=O)c2cc3c(s2)CCCCC3)c(=O)[nH]c1=O
-2% | 9% | 3.0% | -1 | Cc1ccc(C(=O)OCC(=O)NC(=O)c2cccn2C)cc1
? | 29% | -0.8% | 3 | O=C(CNc1cc(S(=O)(=O)N2CCCC2)ccc1OCC(F)(F)F)Nc1ccc(SC(F)F)cc1
0% | -11% | -2.0% | 0 | O=C1N(Cc2ccccc2)CCCC12CCCN(Cc1ccccc1)C2=O
-1% | 4% | -4.6% | · | COc1ccc(CNC(=O)C2CCC(CNC(=O)[C@@H]3Cc4ccccc4CN3)CC2)cc1 (stereo partly specified)
17% | 6% | -13% | -2 | Cc1ccc(S(=O)(=O)N2CCOCC2)cc1C(=O)Nc1ccc(-c2cn3ccsc3n2)cc1
12% | 2% | 1.0% | -6 | O=C(Oc1ccc(F)cc1C(=O)/C=C/c1cccs1)c1cccc([N+](=O)[O-])c1
-84% | 2% | 0.3% | 0 | CCNC(=S)/N=C(\N)Nc1nc(C)c2cc(C)ccc2n1
-18% | 0% | 1.8% | -9 | CCCN(CCC)CC(O)Cn1c2ccccc2c2ccccc21 (stereo unspecified)
-10% | -9% | 0.7% | 2 | COC(=O)c1ccc(C(C(=O)NC2CCCCC2)N(Cc2ccc(F)cc2)C(=O)Cc2cccs2)cc1 (stereo unspecified)
-2% | 28% | -1.5% | -5 | CC(C)CNC(=O)c1cc([N+](=O)[O-])ccc1N1CCCCC1
0% | ? | ? | · | CCCOc1cccc(C2C(C(=O)c3cc4ccccc4o3)=C(O)C(=O)N2c2cc(C)on2)c1 (stereo unspecified)
0% | -16% | 2.6% | -3 | CC(=O)c1cccc(CN2CCCC(CCC(=O)NCc3ccc(F)c(F)c3)C2)c1 (stereo unspecified)
0% | -6% | -0.3% | 2 | Cc1cc(S(=O)(=O)N2CCN(c3ccccc3C)CC2)ccc1F

# Reprinted from the part before: 4 compounds, followed by the next part.
miR-21 FLuc | Rango dissoc inh | Rango-impB inh | GLA inh pH 4.5 | Molecule
-2% | 28% | -1.5% | -5 | CC(C)CNC(=O)c1cc([N+](=O)[O-])ccc1N1CCCCC1
0% | ? | ? | · | CCCOc1cccc(C2C(C(=O)c3cc4ccccc4o3)=C(O)C(=O)N2c2cc(C)on2)c1 (stereo unspecified)
0% | -16% | 2.6% | -3 | CC(=O)c1cccc(CN2CCCC(CCC(=O)NCc3ccc(F)c(F)c3)C2)c1 (stereo unspecified)
0% | -6% | -0.3% | 2 | Cc1cc(S(=O)(=O)N2CCN(c3ccccc3C)CC2)ccc1F
-4% | 10% | -3.1% | -4 | O=C(O)c1cc(NS(=O)(=O)c2ccc(NC3CCCCC3)c([N+](=O)[O-])c2)cc(C(=O)O)c1
-4% | -1% | 3.6% | 10 | CCC(C)(C)n1nnnc1C(c1cccs1)N1CCN(Cc2ccccc2)CC1 (stereo unspecified)
-27% | -6% | 6.9% | -1 | Cc1ccc(-n2cc(C(C)(C)C)[nH]c2=S)cc1
-9% | 5% | -0.6% | 2 | Cc1ccc(S(=O)(=O)NNC(=O)c2ccccc2O)cc1
-9% | ? | -0.4% | -2 | O=C(N/N=C/c1ccc(-c2ccccc2[N+](=O)[O-])o1)c1cncc(Br)c1

# Screens from PubChem.
